Rango release inh – inhibitors of RanGTP-induced Rango-importin beta complex dissociation; Potency, µM (highest dose often 46.1 µM), without a hit: top-dose activity change, negative = inhibition; AID 540253; 0.071% of 340,000 active; O95149+P62826; Biochemical FRET Rango-importin beta, RanGTP-induced dissociation; active means falling FRET ratio curve, often poorly fitted, with flat reads before Ran was added; inconclusive means other falling curves, or compound fluorescence or quenching; inactive means flat or rising ratio curve;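 note: potency is the fitted concentration of half-maximal effect; % of control where 0% means no effect; nearly all actives have a fitted effect of over 45% in size; -100% = wells without RanGTP and RCC1; the record marks most hits as doubtful in a second field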
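Quantitative HTS using a FRET biosensor: 0.1 uM Rango, 0.25 uM importin beta, 0.6 uM Ran, 2 mM GTP, 0.2 uM RCC1 final, PBS with DTT, Tween-20 and BSA. Post-read taken 45 min after Ran addition.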
miR-21 reporter – miR-21 reporter, rising signal | HeLa miR-21 FLuc reporter, luciferase, 48 h | Potency, µM (highest dose often 38.3 µM), for the others: top-dose reporter change, positive = more light | 340,000 tested, under 10 active | AID 2288; active = well fitted rising curve with a large enough effect; inconclusive = small, poorly fitted or top-dose-only effect; inactive = no such curve, though single readings can be large or run the other way;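 note: % of control where 0% means no effect; miR-21 action dims this reporter so a rising signal means less miR-21 action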
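Compounds were titrated across several concentrations (up to approximately 40 uM) and incubated 48 hours with HeLa miR-21-FLuc reporter cells (miR-21 target sequence downstream of FLuc, endogenous miR-21). Readout was firefly luciferase luminescence after lytic detection reagent.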
Rango-impB inh – prevents formation of the Rango-importin beta complex | Rango CFP/YFP FRET sensor + importin beta, 45 min | Potency, µM (titrated, usually from 92.2 µM), inactives show at the top dose inhibition of complex formation | 0.031% of 340,000 active; active = rising FRET ratio curve, often small or poorly fitted; inconclusive = mostly compound fluorescence or quenching in the first reads; inactive = flat curves in all reads;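 note: potency is the fitted concentration of half-maximal effect; 0% = DMSO wells and 100% = buffer wells lacking importin beta; nearly all actives have a fitted effect of over 15% in size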
Target sequence (Q14974 whole entry, looked up): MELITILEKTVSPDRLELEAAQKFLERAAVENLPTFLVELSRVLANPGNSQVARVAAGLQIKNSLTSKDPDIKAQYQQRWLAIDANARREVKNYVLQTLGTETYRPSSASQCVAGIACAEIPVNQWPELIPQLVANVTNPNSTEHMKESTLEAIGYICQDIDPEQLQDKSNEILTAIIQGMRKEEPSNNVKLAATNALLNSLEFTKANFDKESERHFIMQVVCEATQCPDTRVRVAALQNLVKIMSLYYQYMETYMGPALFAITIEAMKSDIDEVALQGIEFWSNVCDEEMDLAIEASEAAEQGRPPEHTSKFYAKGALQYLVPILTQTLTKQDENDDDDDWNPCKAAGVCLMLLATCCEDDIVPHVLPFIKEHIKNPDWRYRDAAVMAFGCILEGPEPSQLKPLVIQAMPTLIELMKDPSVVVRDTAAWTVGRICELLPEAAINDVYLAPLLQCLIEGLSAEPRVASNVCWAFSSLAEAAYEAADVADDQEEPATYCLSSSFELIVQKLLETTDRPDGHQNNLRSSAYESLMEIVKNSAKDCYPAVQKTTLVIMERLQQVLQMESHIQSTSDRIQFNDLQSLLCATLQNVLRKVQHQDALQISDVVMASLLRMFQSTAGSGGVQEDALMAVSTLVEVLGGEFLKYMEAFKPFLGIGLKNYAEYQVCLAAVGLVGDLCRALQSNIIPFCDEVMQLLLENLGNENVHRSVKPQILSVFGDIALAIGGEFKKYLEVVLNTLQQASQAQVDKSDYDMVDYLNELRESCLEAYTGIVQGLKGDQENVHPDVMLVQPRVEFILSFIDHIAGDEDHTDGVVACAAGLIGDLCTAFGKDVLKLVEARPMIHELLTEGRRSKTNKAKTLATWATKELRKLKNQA
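Inhibition scored from the CFP 486 nm/YFP 530 nm FRET ratio 45 min after adding 0.125 microM importin beta to 50 nM Rango biosensor preincubated 5 min with compound (room temperature, PBS with DTT, Tween-20, BSA). No-importin wells as positive control.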
GLA inh pH 4.5 – alpha-galactosidase A (human) inhibition, pH 4.5; 230,000 tested, under 10 active; purified enzyme, 4-MU-alpha-Gal fluorescence, pH 4.5; activity change, negative = inhibition, % at 105 µM; inconclusive = small, poorly fitted or top-dose-only inhibition, or a rising curve; inactive = flat fitted curve, though single readings scatter; no compound was filed as active;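 note: 0% = full activity with enzyme and -100% = basal without enzyme; dose as in the result columns while the protocol names 77 µM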
* = called active by the depositor; ? = inconclusive; / = not tested or not shown; & = joins results of further samples.

Rango release inh | Rango-impB inh | miR-21 reporter | GLA inh pH 4.5 | Structure
-12% | -0.1% | -40%&-54% | / | CCc1nonc1NC(=O)c1oc2ccc(C)cc2c1C
-14% | -3.0% | -6% | / | COC(=O)c1ccc(OCC2NCCc3cc(OC)c(OC)cc32)cc1 (stereo unspecified)
8% | 1.4% | / | / | O=C(CNC(=O)C1CC1)Nc1ccc(F)c(F)c1F
-28% | ? | -7% | 7 | Cc1ccc(-c2c(C#N)c(N)nc3c2CCCCC3)o1
1% | 8.0% | 4% | / | CCOc1ccc(S(=O)(=O)n2nc(C)c(S(=O)(=O)N3CCOCC3)c2C)cc1
2% | 3.4% | -1% | / | Cc1ccc(S(=O)(=O)N(C)c2ccccc2C(=O)N2CCCC2)cc1
-2% | 0.0% | -6% | / | CCN(C(=O)c1cc2c(=O)n3cccc(C)c3nc2s1)C1CCCCC1
-13% | 4.1% | 0% | 2 | NC(=O)CCC(C(=O)O)N1C(=O)c2ccc(O)cc2C1=O (stereo unspecified)
1% | -5.8% | 4% | -1 | CCOC(=O)CNc1ccc(C(=O)OCC)cc1[N+](=O)[O-]
-5% | -3.4% | -3% | 1 | O=C(CSc1nc(-c2ccccc2)nc2ccc(F)cc12)Nc1ccc(C(=O)O)cc1
-5% | -2.4% | -3% | 1 | O=C1NC(=O)C(CC(=O)N(Cc2ccco2)C2(C(=O)NC3CCCC3)CCCCC2)N1 (stereo unspecified)
? | ? | 21% | -2 | O=[N+]([O-])c1c(NCCCO)cc(N2CCN(Cc3ccc4c(c3)OCO4)CC2)c2nonc12
-8% | -6.9% | 1% | -5 | O=C(Nc1ccc(F)cc1F)Nc1sccc1-c1nc2ccccc2s1
? | -1.8% | -8% | 1 | O=C1CC(c2cc([N+](=O)[O-])ccc2Cl)c2c(ccc3ccccc23)N1 (stereo unspecified)
6% | 5.4% | -12% | -3 | CC/C(=N/NS(=O)(=O)c1ccc(Cl)cc1)c1ccc(O)cc1
13% | -2.3% | 1% | -12 | CCC(C)[C@H](NC(=O)NCc1cccnc1)C(=O)OC (stereo partly specified)
-7% | -4.3% | 0% | -3 | COC(=O)C1SCC2C(=O)N(Cc3cccc(C)c3)CC(=O)N21 (stereo unspecified)
12% | 1.0% | -3% | -4 | O=C(NCc1ccccc1)C(=O)Nc1nc(C23CC4CC(CC(C4)C2)C3)cs1
0% | 0.8% | 1%&-2% | -1 | CCCCN(CC)CCCNC(=O)CN1C(=O)CSc2ccc(S(=O)(=O)N3CCOCC3)cc21
8% | 4.9% | 0% | / | COc1cc2c(cc1OC)C(c1cccc([N+](=O)[O-])c1)N(C(=O)CCC(=O)O)CC2 (stereo unspecified)
11% | -6.3% | -5% | / | COc1ccc(NC(=S)N2CCN(CCN3C(=O)c4cccc5cccc(c45)C3=O)CC2)cc1
11% | 2.7% | -30% | -1 | COc1cccc(C=Nc2ccc3c(c2)OCCO3)c1O
-7% | 1.0% | 1% | / | COc1cccc(-n2cc(C(=O)NC(C)C)c3ccccc3c2=O)c1
0% | -0.7% | -3% | / | CC(=O)Nc1ccc(S(=O)(=O)NCCC(=O)NCC2COc3ccccc3O2)cc1 (stereo unspecified)
2% | 0.6% | -4% | -2 | CCCCCCC1CC(CC(=O)Nc2ccc([N+](=O)[O-])cc2)C(=O)O1 (stereo unspecified)
0% | -2.9% | -4% | 0 | COc1cc2c(C(=O)NCCCOC(C)C)cn(CC(C)C)c(=O)c2cc1OC
-12% | 0.0% | -8% | -2 | O=C(/C=C/c1ccccc1)C1=C(O)C(=O)N(CCO)C1c1ccccc1[N+](=O)[O-] (stereo unspecified)
-5% | -0.4% | 1% | / | CNc1c(NS(=O)(=O)c2ccc(CC(C)C)cc2)c(=O)oc2ccccc12
-17% | ? | / | / | Cc1c(C(C)CCCO)oc(=O)c2c1Oc1c(C)c(C(C)C[C@H](C)O)oc(=O)c1C2 (stereo partly specified)
-11% | -1.7% | 2% | / | CN(C)C1(CNC(=O)C2CCN(S(=O)(=O)c3cc(Cl)ccc3Cl)CC2)CCCCC1
-7% | -3.1% | -5% | 14 | O=C(NCc1ccccc1)c1cc(-n2cnnc2)ccc1Cl
5% | -2.8% | -15% | 8 | CSc1nc2[nH]c3c(c2c2nncn12)CC(C)(C)OC3
-10% | ? | 13% | -7 | O=C(NC(CSCc1ccccc1)C(=O)N/N=C/c1ccc(O)cc1O)c1ccc([N+](=O)[O-])cc1 (stereo unspecified)
0% | -1.4% | / | / | CCO[C@@H]1OC(C(=O)Nc2ccccc2)=C[C@H](C)[C@H]1CCCO
5% | 0.2% | 20% | -2 | CC(=O)Cc1nsc(NC(=O)c2ccc(-c3cc(C(F)(F)F)ccc3Cl)o2)n1
2% | 3.1% | -6% | 3 | C/C(Cl)=C/Cn1c(=O)c2c(nc(Br)n2Cc2ccccc2)n(C)c1=O
-12% | 4.9% | -3% | -6 | CCn1c(Cc2c(C)[nH]c3ccccc23)nnc1SCC(N)=O
-18% | ? | 13%&18% | / | CCC1CN(C(=O)N2CCC(C(=O)NCc3ccc(C)o3)CC2)c2cc(C)ccc2O1 (stereo unspecified)
-4% | -0.2% | / | / | Cc1cccc(NC(=O)CCc2nc3sc4c(c3c(=O)[nH]2)CCCC4)n1
-10% | -1.3% | 0% | / | CCOc1ccc(CNC(=O)CCC(=O)N2Cc3cccc(OC)c3Oc3ncccc32)cc1
22% | -7.7% | -1% | -3 | COC(=O)c1[nH]c2ccccc2c1NC(=O)CN1CCC(C(N)=O)(N2CCCCC2)CC1
-11% | ? | -32% | 0 | Cc1ccn2c(NC3CCCC3)c(-c3cccs3)nc2c1
-16% | 2.2% | -3% | 2 | COc1cc(NC2c3ccccc3C(=O)N2Cc2ccc3c(c2)OCO3)cc(OC)c1OC (stereo unspecified)
4% | -5.1% | -13% | 21 | COc1ccc(C(=O)Nc2cccc(/C=C/c3nc4ccccc4c(=O)[nH]3)c2)cc1
2% | 3.6% | -6% | -1 | COC(=O)C(NS(C)(=O)=O)(c1c(C)[nH]c2ccccc12)C(F)(F)F (stereo unspecified)
9% | -0.1% | -2% | / | COc1ccc(OCCCCN(C)Cc2ccccc2)cc1
-2% | -0.7% | -6% | 3 | COc1cccc(C2CC(c3ccccc3OC)n3nc(N)nc3N2)c1 (stereo unspecified)
13% | 0.4% | -38% | -21 | CC(=O)c1cc(C#N)c(Oc2cccc(C(F)(F)F)c2)nc1C
-5% | 1.3% | -1% | -7 | O=C(N[C@@H](Cc1ccccc1)C(=O)OCc1ccccc1)c1nc[nH]c1C(=O)NC(c1ccccc1)c1ccccc1
1% | 0.2% | -37% | / | COc1ccc(C(=O)Nc2nccs2)cc1
-17% | 9.7% | -12% | 6 | CCOC(=O)c1sc(NC(=O)c2cc3n(n2)C(C(F)(F)F)CC(c2cccs2)N3)c(C(=O)OCC)c1C (stereo unspecified)
6% | 2.2% | 13% | / | O=C(Nc1ccc(Cl)c(Cl)c1)Nc1ccon1
-20% | ? | 1% | -3 | O=C(C(Cc1ccccc1)n1cccc1)N1CCN(C2CCCCC2)CC1 (stereo unspecified)
8% | -1.6% | -3% | -3 | CC1=CSC2=NC(C(F)(F)F)(C(F)(F)F)NC(=O)N12
-1% | 3.3% | -1% | -5 | Cn1nc(C(F)(F)F)c2cc(NC(=O)OCc3ccc(F)cc3)sc21
45% | 0.3% | -10% | -12 | COc1ccccc1-c1cc(C(F)(F)F)nc(NCc2ccco2)n1
20% | -0.3% | 1% | / | CCOC(=O)N1CCC(NC(=O)Cc2ccccc2)CC1
0% | -1.7% | 0% | -1 | COc1ccccc1CNC(=O)C1CCN(C(=O)N(C)C)CC1
-11% | 2.1% | ? | -6 | O=C(Nc1ccccc1)c1nnsc1S(=O)c1ccc(Cl)cc1 (stereo unspecified)
-4% | 0.7% | / | / | O=C(CN1C(=O)NC2(CCCCC2)C1=O)Nc1cccc(Cl)c1Cl

Entries of single compounds from above:
Listed for CC(=O)Cc1nsc(NC(=O)c2ccc(-c3cc(C(F)(F)F)ccc3Cl)o2)n1 = Rango release inh = 5%; Rango-impB inh = 0.2%; miR-21 reporter = 20%; GLA inh pH 4.5 = -2
Listed for O=C(Nc1ccccc1)c1nnsc1S(=O)c1ccc(Cl)cc1 (stereo unspecified) = Rango release inh = -11%; Rango-impB inh = 2.1%; miR-21 reporter = ?; GLA inh pH 4.5 = -6

(cont.)
Rango release inh | Rango-impB inh | miR-21 reporter | GLA inh pH 4.5 | Structure
15% | -2.5% | 5% | 2 | C(/CCc1ccccc1)=N\Nc1nc2ccccc2[nH]1
-2% | 3.3% | / | / | O=C(Nc1ccccc1)c1ccccc1NC(=O)c1ccccc1[N+](=O)[O-]
0% | -1.8% | / | / | CCCOc1ccc(C(=O)CCC(=O)NNC(=O)Cn2nc(C)cc2C)cc1
? | ? | -29% | 3 | N=c1oc2ccccc2cc1-c1nc(-c2ccccc2)cs1
3% | -0.1% | 0% | -3 | CCn1c2ccccc2c2cc(NC(=O)COc3ccccc3)ccc21
0% | -2.5% | -3% | 1 | COc1cccc(C(CC(=O)NCc2ccco2)NS(=O)(=O)c2ccc(C)cc2)c1OC (stereo unspecified)
-1% | -0.2% | 1% | 3 | c1ccc(Nc2ccccn2)cc1
0% | 1.7% | -10% | -3 | CCCCNC(=O)Nc1cc(C(F)(F)F)c[nH]c1=O
-16% | 4.2% | 0% | / | Cc1onc(-c2ccccc2)c1C(=O)N1CCN(c2ccccc2F)CC1
7% | 8.1% | -33% | ? | COc1ccccc1OCCNc1cc(N2CCOCC2)ccc1[N+](=O)[O-]
15% | 0.3% | -15% | / | CCC(=O)N1N=C(c2ccccc2)CC1c1ccccc1 (stereo unspecified)
-7% | -0.2% | -8% | 4 | CCOC(=O)Nc1ccc2c(c1)N(C(=O)CN1CCN3CCCC3C1)c1ccccc1CC2 (stereo unspecified)
-8% | -1.6% | -1% | -2 | COc1ccc([N+](=O)[O-])cc1-n1cnnn1
-1% | -2.8% | 4% | -6 | CC(NC(=O)COc1ncnc2cc([N+](=O)[O-])ccc12)c1ccccc1 (stereo unspecified)
-6% | -0.5% | -1% | / | Cc1ccc(NC(=O)CSc2nc3ccccc3c(=O)n2CC2CCCO2)cc1 (stereo unspecified)
4% | -1.5% | -1% | 3 | CC(=O)NC(c1ccccc1)c1cccnc1 (stereo unspecified)
-10% | -0.3% | 8% | / | CC1(c2ccc(OC(F)F)cc2)NC(=O)N(CC(=O)Nc2ccc(F)cc2)C1=O (stereo unspecified)
8% | -1.7% | -6% | / | OC(CNCC1COc2ccccc2O1)COc1ccc(Cl)cc1 (stereo unspecified)
-4% | 0.0% | -27% | / | COc1ccc(NC(=O)c2ccc(-c3csc(C)n3)cc2)cc1
-2% | 3.4% | -4% | -6 | COc1ccc(CN(Cc2nc3ccccc3c(=O)[nH]2)C(=O)C(C)(C)C)cc1
-14% | 2.6% | -2% | -7 | CC(C)(C)NC(=O)COC(=O)c1nsc(Cl)c1Cl
-7% | -0.9% | -4% | -7 | C/C(=N\Nc1nc2ccccc2[nH]1)c1ccc([N+](=O)[O-])cc1
3% | 0.9% | / | / | COc1ccc(C(CNC(=O)c2ccc(-c3cccc(C(F)(F)F)c3)o2)N2CCOCC2)cc1 (stereo unspecified)
-6% | 2.2% | 0% | 0 | Cc1ccc(C)c2nc(SCC(=O)NCc3cccs3)c(C#N)cc12
-1% | -2.1% | / | / | O=C(CCN1C(=O)C2CC=CCC2C1=O)Nc1ccc(S(=O)(=O)N2CCCCC2)cc1 (stereo unspecified)

Ordered by value in Rango-impB inh (smallest number first): some entries from above.
Rango release inh | Rango-impB inh | miR-21 reporter | GLA inh pH 4.5 | Structure
-1% | -2.8% | 4% | -6 | CC(NC(=O)COc1ncnc2cc([N+](=O)[O-])ccc12)c1ccccc1 (stereo unspecified)
0% | -2.5% | -3% | 1 | COc1cccc(C(CC(=O)NCc2ccco2)NS(=O)(=O)c2ccc(C)cc2)c1OC (stereo unspecified)
-16% | 4.2% | 0% | / | Cc1onc(-c2ccccc2)c1C(=O)N1CCN(c2ccccc2F)CC1

Not all compounds are listed; rates above refer to the full screens.
